High-throughput results deposited in PubChem by several laboratories.
RGS16-Gao HTS: regulators of human RGS16-Galphao interaction; 220,000 compounds, 0.38% hits; bead-based flow cytometry RGS16-Galphao binding, fluorescence; actives lie on both sides; O15492+P09471; binding response (% of control), % at 10 µM;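 active = below 25% or above 175%, edge rows of some plates excepted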;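 note: Galphao activated by GDP with aluminum fluoride before binding; 100% = wells without compound and 0% = beads without RGS; some results beyond the cut were filed as inactive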
Target sequence (O15492 whole entry, looked up): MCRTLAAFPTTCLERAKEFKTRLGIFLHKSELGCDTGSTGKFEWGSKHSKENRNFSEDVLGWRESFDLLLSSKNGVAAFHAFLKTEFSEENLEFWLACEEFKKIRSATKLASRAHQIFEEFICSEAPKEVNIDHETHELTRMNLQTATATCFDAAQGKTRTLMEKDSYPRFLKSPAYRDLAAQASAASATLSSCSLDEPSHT
Target sequence (P09471 whole entry, looked up): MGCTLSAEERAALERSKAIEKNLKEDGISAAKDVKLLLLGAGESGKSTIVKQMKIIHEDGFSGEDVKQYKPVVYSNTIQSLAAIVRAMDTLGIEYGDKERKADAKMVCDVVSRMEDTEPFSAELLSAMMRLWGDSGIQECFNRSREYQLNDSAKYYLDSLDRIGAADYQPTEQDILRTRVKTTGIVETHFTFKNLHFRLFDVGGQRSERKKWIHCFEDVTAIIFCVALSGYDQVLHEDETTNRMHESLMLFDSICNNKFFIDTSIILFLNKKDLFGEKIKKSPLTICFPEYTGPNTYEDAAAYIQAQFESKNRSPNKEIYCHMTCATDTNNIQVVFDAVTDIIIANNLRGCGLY
GALR2 agonist: GALR2 (human) receptor agonism; O43603; GALR2-expressing cells, agonist activation read-out; activation, %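 (tested at 5 µM)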; 140,000 compounds, 0.48% hits; AID 803;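 active = above mean plus 3 SD of all compounds, about 5% in these data, not always enough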;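 note: 0% = vehicle buffer wells and 100% = reference agonist at full effect; tested in CHO reporter cells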
Target sequence (O43603 whole entry, looked up): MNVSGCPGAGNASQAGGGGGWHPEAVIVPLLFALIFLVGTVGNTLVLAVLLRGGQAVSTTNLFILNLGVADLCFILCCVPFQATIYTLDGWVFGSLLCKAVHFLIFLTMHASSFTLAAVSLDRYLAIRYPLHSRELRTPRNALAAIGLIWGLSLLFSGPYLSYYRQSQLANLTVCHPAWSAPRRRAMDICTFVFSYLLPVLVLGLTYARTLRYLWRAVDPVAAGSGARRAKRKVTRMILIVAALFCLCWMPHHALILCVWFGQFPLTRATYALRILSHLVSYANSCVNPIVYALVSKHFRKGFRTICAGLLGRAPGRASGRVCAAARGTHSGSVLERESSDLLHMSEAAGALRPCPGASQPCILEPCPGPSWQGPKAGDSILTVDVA
HSV augment: increases HSV replication in cells; 220,000 compounds, 0.005% hits; maximum fold increase; HSV replication augmentation in cells, fold increase;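 active = peak rise of 1.5-fold or more in the series; tested in PC3 cells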;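 note: first round at 10 µM; read as green reporter fluorescence; hits show the peak of a series up to 25 µM; 1 = signal of infected wells without compound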
INS promoter inh: TRM-6 insulin promoter activity inhibition | TRM-6 cells (human fetal islet line), insulin promoter-eGFP reporter, imaging; reporter expression induced with tamoxifen | inhibition, % at 2 µM | 130,000 compounds, 0.9% hits;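 active = inhibition above the mean plus 3 SD, with well images judged a real hit on visual review, cut at about 60% in these data, passing the limit was not always enough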
PKD1 kinase inh: PKD1 (human) kinase inhibition; PKD1 kinase fluorescence polarization assay; inhibition, %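 (about 10 µM by stock and volumes)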; 200,000 compounds, 0.056% hits;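 active = inhibition of 50% or more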;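 note: controls were vehicle for no effect and a reference inhibitor for full effect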
INS promoter inh cell count: second read-out of INS promoter inh, no call of its own (marks repeat the call); normalized cell count, %; measured here: cell count, toxicity; reference of the scale not given here;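 cells exposed to compound for 48 h; stained nuclei by imaging scaled within each plate; lower means fewer cells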
HSV augment primary fold: further read-out of HSV augment, marked with its call; fold increase; compound at 10 µM; measured here: primary screen fold increase 10 uM; tested in PC3 cells;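 GFP signal in the first replicate; 1 = infected wells without compound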
Starred values were filed as active, the others as inactive; i = inactive; . = no result given.

canonical_smiles	HSV augment	RGS16-Gao HTS	GALR2 agonist	INS promoter inh	PKD1 kinase inh	HSV augment primary fold	INS promoter inh cell count
COC(=O)C(O)(CC(=O)Nc1ccc(OC)cc1)C(F)(F)F (centres undefined)	i	20	-1.6	-419	-5	0.84	54
COC(=O)C(C(C)C)N1CCc2c(C)nc3c(C#N)cnn3c21 (centres undefined)	i	102	.	40	6	0.97	79
CCOC(=O)Cc1nnc(NC(=O)Nc2ccccc2)s1	i	101	-0.7	.	-8	0.88	.
CCOC(=O)C1C2C=CC3(CN(C4CCCC4)C(=O)C13)O2 (centres undefined)	i	104	-0.4	32	-10	0.75	109
CC1(C)CC[C@]2(C(=O)O)CC[C@]3(C)C(=CCC4[C@@]5(C)CC[C@H](O)C(C)(C)C5CC[C@]43C)C2C1 (some centres undefined)	i	105	-0.9	10	3	0.9	116
Cc1ccc(-c2ccc3nnc(SCC(N)=O)n3n2)cc1	i	100	.	37	7	1	137
Cc1cc(C)c(C2=NOC3C4CCC(C4)C23)c(C)c1 (centres undefined)	i	100	-0.6	.	5	0.93	.
CN1C2CCC1CC(NC(=O)c1ccc(Cl)cc1)C2 (centres undefined)	i	103	.	.	.	1.2	.
Nc1nc(SCC(=O)Nc2ccc(Br)cc2F)n[nH]1	i	120	-2.7	.	2	0.94	.
Cc1nn2c(-c3ccc(Cl)cc3)nnc2s1	i	101	-0.4	48	-6	0.81	84
O=c1[nH]n(Cc2ccccc2)c(=O)c2ccccc12	i	97	-3.2	-64	-11	1.2	109
O=C(NCc1ccc2c(c1)OCO2)c1cc(-n2cnnc2)ccc1Cl	i	103	-2.3	4	-5	1	146
COc1ccc(N(CC(=O)O)S(=O)(=O)c2ccc(C)cc2)cc1Cl	i	113	.	.	-5	0.86	.
Cc1cc2ccccc2n1CCNC(=O)C1CCCCC1	i	109	-0.3	.	10	0.98	.
O=C(N/N=C/c1cccc(NC(=O)c2ccc(Cl)cc2)c1)c1cccc(O)c1	i	102	.	.	.	0.88	.
CCCS(=O)(=O)Nc1cccc(-c2ccc3nnc(C)n3n2)c1	i	104	.	-67	1	0.98	117
Cc1ccc(C(=O)OCC(=O)N(C)C2CCS(=O)(=O)C2)cc1[N+](=O)[O-] (centres undefined)	i	99	.	7	-8	0.65	77
COc1ccc(Cn2c(=O)cc(N)n(-c3ccccc3C)c2=O)cc1	i	105	.	.	.	0.74	.
O=C(Cn1cnc2c(nnn2Cc2ccc(F)cc2)c1=O)OCc1ccccc1	i	111	-1.8	-62	-8	0.92	97
CCOC(=O)c1[nH]ncc1[C@@H]1C[C@H]2CN(Cc3cccc(Cl)c3)C(=O)[C@]23CCCN13	i	98	.	.	.	0.95	.
CCOC(=O)C1CCCN(c2c(NCCc3ccc(C)cc3)c(=O)c2=O)C1 (centres undefined)	i	100	.	.	.	0.98	.
Cc1sc2c(c1C)c(=O)n(-c1cccc(C(F)(F)F)c1)c(=O)n2CC(=O)NCc1ccco1	i	107	0.8	69*	8	0.9	48*
CCN1CCN(c2nc(C)c3c(n2)CCCC3=O)CC1	i	100	-2.6	19	-3	1.1	86
COc1ccc(N2CCN(C(=O)NCc3ccc(OC)c(Cl)c3)CC2)cc1	i	100	.	.	1	0.96	.
CSCCC(NS(=O)(=O)c1ccc(C)c(C(=O)O)c1)C(=O)O (centres undefined)	i	100	.	.	-6	1	.
COc1ccc(/C=N/NC(=O)c2ccc(COc3ccccc3Cl)o2)c(OC)c1C	i	104	8.0*	11	-3	0.79	76
COC(=O)COc1ccc(Oc2nc(SC)nc(N(C)C)n2)nn1	i	99	-1.4	-18	3	0.83	105
CCCCCC(=O)Nc1ccccc1N1CCOCC1	i	108	-0.2	-14	-3	0.95	136
O=C1OCCC1Sc1nc2ccccc2c(=O)n1-c1ccc(F)cc1 (centres undefined)	i	100	.	.	0	0.94	.
CC(=O)c1nn(-c2cccc(Br)c2)cc1C(=O)c1ccco1	i	81	-1.5	0	-3	1	93
COc1ccccc1C(=O)N/C(=C\c1ccc2c(c1)OCO2)C(=O)NCCc1nc2ccccc2[nH]1	i	112	-0.4	0	-4	0.97	122
O=S(=O)(N/N=C1\CC(c2ccccc2)Oc2ccccc21)c1ccccc1 (centres undefined)	i	58	-2.4	-29	3	1	50
CCCOc1ccc(Cl)cc1CN1CCOCC1	i	101	-2.9	-32	-2	1.1	258
Cc1cc2ncn(S(=O)(=O)N3CCOCC3)c2cc1C	i	37	-0.7	-63	-4	0.85	111
Cc1c(N=Cc2ccc(-c3ccc(Cl)cc3)o2)c(=O)n(-c2ccccc2)n1C	i	96	-2.3	19	0	0.89	120
Fc1ccc(Oc2ccc3nnc(C(F)(F)F)n3n2)cc1	i	103	.	-12	-2	0.97	89
CCCN1C(=O)C(NC(C)=O)c2cc(OC)ccc21 (centres undefined)	i	100	-1.5	6	-13	1	96
c1csc(-c2nnc3ccccn23)c1	i	97	-1.8	40	-7	0.82	124
NS(=O)(=O)c1ccc(NC(=S)NC2CC2)cc1	i	94	.	.	4	1.1	.
Nc1cc2nn(-c3ccccc3)nc2cc1Cl	i	91	.	40	-4	1	96
O=Cc1ccc(-c2ccccc2OC(F)(F)F)o1	i	107	-0.7	-10	0	1	135
CCOC(=O)c1ccc(Oc2c(C)oc3c(CN4CCN(C)CC4)c(O)ccc3c2=O)cc1	i	96	-0.9	15	4	0.91	221
Cc1ccc(CN(Cc2cccnc2)C(=S)Nc2cccc(Cl)c2C)cc1	i	100	.	.	-7	1	.
NS(=O)(=O)c1ccc(N2N=C(c3ccccc3)CC2c2ccc(F)cc2)cc1 (centres undefined)	i	43	20*	22	-8	0.95	113
O=C(CSc1nnc(-c2ccc(C(F)(F)F)cn2)s1)c1ccccc1	i	101	.	.	.	0.95	.
Cc1ccc(NC(=O)C(=O)NCC2CCCO2)cc1 (centres undefined)	i	107	.	.	8	0.97	.
O=Cc1ccccc1OS(=O)(=O)c1ccccc1	i	98	-1.3	36	1	1.1	112
CC1=NN(c2ccccc2)C(=O)C1C(=O)c1cc([N+](=O)[O-])cc([N+](=O)[O-])c1 (centres undefined)	i	100	.	.	-8	0.93	.
COc1ccc(Cn2cc(F)c(=O)n(CCC(C)C)c2=O)cc1[N+](=O)[O-]	i	108	-2.6	-22	-7	0.89	93
CC(C)c1ccc(OCC(=O)NCc2ccco2)cc1	i	104	-0.9	67	-8	0.98	138
Cc1cccc(-n2nnc(C(=O)NC3CCCc4ccccc43)c2N)c1 (centres undefined)	i	114	0.7	.	-1	0.74	.
CCOC(=O)/C=C/C(=O)Nc1nccs1	i	99	0.7	.	-5	0.78	.
O=C(NCCc1ccccc1)C1CCN(C(=O)c2ccc([N+](=O)[O-])cc2)CC1	i	101	.	.	0	0.98	.
CN(C)S(=O)(=O)c1cc(NC(=O)COC(=O)CCSc2ccc(Cl)cc2)ccc1Cl	i	103	-0.2	8	-6	0.97	57
C=CCNC(=S)N1CCN(c2ncc(C(F)(F)F)cc2Cl)CC1	i	97	.	.	.	1.1	.
CC(C)(CO)CNC(=O)CCc1nnc(Cc2ccc(-c3ccccc3)cc2)o1	i	102	.	.	5	1	.
COc1cccc(-c2cc(C(F)(F)F)nc(-n3cccn3)n2)c1	i	107	-1.1	0	-4	0.81	154
Cc1cc(C(=O)NCCN2CCCCC2C)n(-c2ccccc2)n1 (centres undefined)	i	108	-1.2	.	-14	0.94	.
COc1ccc(N(C)C(=S)Oc2ccc(C(=O)Nc3ccccc3)cc2)cc1	i	100	-3.1	50	2	0.7	158
Cc1cccc(/C=C/c2nc3ccccc3c(=O)n2Cc2ccccc2)c1	i	115	-1.3	29	-1	0.99	89

Reformatted field by field: part of the list above
SMILES: Cc1ccc(CN(Cc2cccnc2)C(=S)Nc2cccc(Cl)c2C)cc1
- HSV augment: i
- RGS16-Gao HTS: 100
- GALR2 agonist: .
- INS promoter inh: .
- PKD1 kinase inh: -7
- HSV augment primary fold: 1
- INS promoter inh cell count: .

SMILES: NS(=O)(=O)c1ccc(N2N=C(c3ccccc3)CC2c2ccc(F)cc2)cc1 (centres undefined)
- HSV augment: i
- RGS16-Gao HTS: 43
- GALR2 agonist: 20*
- INS promoter inh: 22
- PKD1 kinase inh: -8
- HSV augment primary fold: 0.95
- INS promoter inh cell count: 113

Sorted by SMILES length (high to low): four of the compounds above
canonical_smiles	HSV augment	RGS16-Gao HTS	GALR2 agonist	INS promoter inh	PKD1 kinase inh	HSV augment primary fold	INS promoter inh cell count
CN(C)S(=O)(=O)c1cc(NC(=O)COC(=O)CCSc2ccc(Cl)cc2)ccc1Cl	i	103	-0.2	8	-6	0.97	57
NS(=O)(=O)c1ccc(N2N=C(c3ccccc3)CC2c2ccc(F)cc2)cc1 (centres undefined)	i	43	20*	22	-8	0.95	113
O=C(CSc1nnc(-c2ccc(C(F)(F)F)cn2)s1)c1ccccc1	i	101	.	.	.	0.95	.
CC(C)c1ccc(OCC(=O)NCc2ccco2)cc1	i	104	-0.9	67	-8	0.98	138

Additional structures follow:
canonical_smiles	HSV augment	RGS16-Gao HTS	GALR2 agonist	INS promoter inh	PKD1 kinase inh	HSV augment primary fold	INS promoter inh cell count
Clc1ccccc1Cn1nnc2c(N3CCCC3)ncnc21	i	94	-0.4	-27	-9	0.95	129
NC1=C([N+](=O)[O-])C(c2ccc(F)cc2)C2=C(CCCC2=O)O1 (centres undefined)	i	102	-2.4	-35	-9	0.98	109
Clc1ccc(-n2nnnc2CN2CCCCC2)cc1Cl	i	101	-0.6	-25	0	0.88	123
O=C(CSc1nc(O)cc(=O)[nH]1)Nc1ccc2c(c1)CCC2	i	95	-0.8	-69	-2	0.87	78
COC(=O)CCc1nc2ccccc2[nH]c1=O	i	65	-0.2	-8	6	0.92	107
Cc1ccc(-n2c(Cl)c(Cl)[nH]c(=O)c2=O)cc1	i	110	-0.4	11	0	1.1	130
CC#CCN1c2ccccc2[C@]23C[C@@H](C(=O)OC)N(C(=O)c4cc(C)oc4C)C2=NC(C(=O)OC)=C(C(=O)OC)[C@H]13	i	107	.	.	.	0.87	.
CN1CCN(c2ccc(NC(=O)CSc3ccccc3)cc2F)CC1	i	105	-1.0	2	-5	0.83	100
Cc1sc2ncnc(N/N=C/c3cccc(O)c3)c2c1C	i	106	0.3	.	9	0.83	.
C(=N\Nc1nc2ccccc2s1)/c1ccccn1	i	100	.	.	.	0.82	.
CCn1c(SCC(=O)Nc2nonc2C)nnc1-c1ccco1	i	101	-1.9	.	2	1	.
COc1ccc(/C=N/NC(=O)c2nc(-c3ccccc3)n(-c3ccccc3)n2)cc1OC	i	93	0.1	-55	2	0.92	152
O=[N+]([O-])c1ccc(/C=N/Nc2nc(NCc3ccccc3)nc(N3CCOCC3)n2)cc1	i	107	.	33	-10	0.79	135
CCN(Cc1ccncc1)C(=O)CCc1nnc(CCc2ccccc2OC)o1	i	97	.	.	4	0.93	.
O=C(NC(=S)Nc1ccccn1)c1cncc(Br)c1	i	100	0.5	13	10	1.1	84
CN(Cc1cccnc1)Cc1cn[nH]c1-c1ccc(-c2ccccc2)cc1	i	107	.	.	.	0.79	.
O=C(COC(=O)/C=C/c1cccs1)Nc1ccc2ccccc2c1	i	95	0.1	-6	-13	0.91	115
COC(=O)c1sc2nc(C)nc(SCC(=O)C(C)(C)C)c2c1C	i	101	.	43	-4	1.1	95
CN(Cc1cnn(C)c1)S(=O)(=O)c1cccc([N+](=O)[O-])c1	i	97	.	17	-3	1	62

This is a random part of the collection; overall some 1.3% were active at least once.
